HNF4A DNA FP: change in binding of human HNF4 alpha to DNA; HNF4a-FITC DNA binding, fluorescence polarization, 1 h; activity change, % at 10 µM; 360,000 tested, 0.3% active; AID 1224865; in the data active = activity change above about 30%, passing the limit was not always enough;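 also: controls were the assay level and a saturating level of protein; the project sought stronger binding though the title names inhibitors; some compounds called inactive have numbers as strong as hits; positive values seem to mean higher polarization but the record does not say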
ALR inh: human ALR oxidase inhibition via reduced H2O2; P55789; purified ALR, DTT oxidation, H2O2 HRP-luminol luminescence; inhibition, % (no concentration beside the values); 290,000 tested, 3.8% active;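 active = mean and each replicate at 75% or more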;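 also: stock transfer was 7.5 nL into about 7.5 µL; 0% = neutral wells and 100% = wells with inactivated enzyme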
Target sequence (P55789 whole entry, looked up): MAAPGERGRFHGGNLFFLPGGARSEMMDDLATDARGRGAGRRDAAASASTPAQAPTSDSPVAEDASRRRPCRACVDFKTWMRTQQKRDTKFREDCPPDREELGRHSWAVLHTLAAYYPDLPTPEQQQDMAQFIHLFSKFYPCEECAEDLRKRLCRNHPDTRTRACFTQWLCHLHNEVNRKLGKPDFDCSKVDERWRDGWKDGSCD
FGF22 binding: binders of recombinant human FGF22 by thermal shift; Q9HCT0; SYPRO orange fluorescence; percent of sucrose octasulfate shift, DMSO zero; calls only at 9.99 µM; 340,000 tested, 1.5% active;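 active = melting point raised past a set limit in the mean and every replicate; three in four hits are not shown here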
Target sequence (Q9HCT0 whole entry, looked up): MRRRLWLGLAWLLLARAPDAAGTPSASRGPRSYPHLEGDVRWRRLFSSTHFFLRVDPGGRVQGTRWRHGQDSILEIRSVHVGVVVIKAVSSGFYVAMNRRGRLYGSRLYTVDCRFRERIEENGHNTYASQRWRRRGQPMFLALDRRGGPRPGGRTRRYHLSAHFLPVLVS
rRNA inh HTS: inhibits bacterial ribosomal RNA function over humanized ribosomes; E. coli WT GFP vs humanized-ribosome RFP mutants, fluorescence, 24 h; hits give low values; DMSO median 0, no signal -100; GFP signal change (wild-type ribosome), % (test concentration not listed); 350,000 tested, 1.6% active; AID 720706;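 active = significant combined selectivity score with lowered wild-type GFP, culture density cut under 30%, mutant RFP and density less affected; inactive = any of these conditions unmet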; also: one replicate is shown; some compounds called inactive have numbers as strong as hits
Ecoli growth: blocks Escherichia coli growth | OD600, 23 h; hits give low values | OD600 absorbance (test concentration not listed) | 330,000 tested, 0.21% active | AID 1053175;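 active = OD600 absorbance below the run mean of sample wells minus 3.6 SD, in any replicate, cut at about 0.56 in these data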;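 also: stock transfer was 300 nL into about 60 µL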
AF4-AF9 inh: blocks AF4 peptide binding to human AF9. inhibition, % at 10 µM. AlphaScreen, biotin-AF4 peptide binding to FLAG-AF9. 350,000 tested, 0.47% active. P42568;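 active = every replicate reaching a set inhibition limit, whatever the replicate mean, cut at about 25% in these data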;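 also: 0% = plate neutral control median and 100% = total signal loss; the record names both 10 and 1 µM as test concentration; the first replicate is given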
Target sequence (P42568 whole entry, looked up): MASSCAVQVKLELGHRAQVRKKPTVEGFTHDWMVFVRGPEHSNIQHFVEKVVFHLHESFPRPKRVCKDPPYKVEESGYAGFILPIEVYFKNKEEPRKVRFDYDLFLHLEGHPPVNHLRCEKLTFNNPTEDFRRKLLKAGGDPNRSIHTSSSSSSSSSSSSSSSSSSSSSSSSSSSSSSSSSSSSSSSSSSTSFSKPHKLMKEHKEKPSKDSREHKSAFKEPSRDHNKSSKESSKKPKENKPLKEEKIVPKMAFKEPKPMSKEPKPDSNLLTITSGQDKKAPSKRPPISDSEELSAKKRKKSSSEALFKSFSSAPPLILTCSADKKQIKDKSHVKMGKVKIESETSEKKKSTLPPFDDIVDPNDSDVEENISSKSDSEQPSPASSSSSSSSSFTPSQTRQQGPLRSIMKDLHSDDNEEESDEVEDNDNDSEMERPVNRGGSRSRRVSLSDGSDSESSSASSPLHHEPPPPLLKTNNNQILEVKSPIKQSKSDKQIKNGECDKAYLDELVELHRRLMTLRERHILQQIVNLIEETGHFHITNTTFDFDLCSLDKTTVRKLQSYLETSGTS
Vif A3G: HIV-1 Vif–A3G interaction blockers – biochemical, TR-FRET, GST-Vif 1-94, biotin-A3G peptide, dose response retest, primary screen (AID 1117319); TR-FRET GST-Vif / biotin-A3G peptide binding; higher % means a stronger effect; test concentration not given here; strong numbers were not always called active; inhibition, %, or IC50 in µM where a hit was titrated; 260,000 tested, 0.57% active;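 active = above the screen mean plus three standard deviations and confirmed in dose response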;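 also: Vif residues 1-94 fused to GST binding biotinylated APOBEC3G peptide 110-148; 0% = full assay without inhibitor and 100% = GST in place of GST-Vif; retest series ran down from 100 µM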
rRNA inh HTS OD600: further read-out of rRNA inh HTS, marked with its call; OD600 change, %; measured here: OD600 growth;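 optical density of the mix in the first replicate; 0 = DMSO median and -100 = no signal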
rRNA inh HTS RFP: also measured in rRNA inh HTS; calls as there; RFP signal change, %; measured here: RFP humanized mutant strains;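 first replicate; 0 = DMSO median and -100 = no signal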
* marks the source's active call; other numbers are inactive results. Not all compounds are listed; count on the stated rates, not on these rows.

Results for CN1C(=O)c2cc(NC(=O)C3CC3)ccc2OC[C@H]2O[C@@H](CC(=O)NC3CCC3)CC[C@@H]21 ?
FGF22 binding: inactive; rRNA inh HTS: 2; AF4-AF9 inh: -7.1; rRNA inh HTS OD600: 11; rRNA inh HTS RFP: 1.0

Results for O=C(NCC1CCCO1)c1cnc(Cl)c(Cl)c1 (stereo not drawn) ?
HNF4A DNA FP: -0.9; FGF22 binding: inactive; rRNA inh HTS: 20; Ecoli growth: 0.68; AF4-AF9 inh: -17; Vif A3G: -3%; rRNA inh HTS OD600: 8; rRNA inh HTS RFP: 2.9

How did COc1ccc([N+](=O)[O-])cc1CN1CCN(c2ncc(Cc3ccccc3)cn2)CC1 do in these assays?
HNF4A DNA FP: 2.4; FGF22 binding: inactive; rRNA inh HTS: -7; rRNA inh HTS OD600: -19; rRNA inh HTS RFP: -0.1

Results for C[C@@H]1CN([C@@H](C)CO)C(=O)c2cc(NC(=O)NC3CCCCC3)ccc2O[C@@H]1CN(C)C(=O)Nc1ccc(F)cc1 ?
FGF22 binding: inactive; rRNA inh HTS: -4; AF4-AF9 inh: -3.1; rRNA inh HTS OD600: -5; rRNA inh HTS RFP: 2.6

How did CO[C@H]1CN(C)C(=O)c2ccc(NC(=O)c3cccc(Oc4ccccc4)c3)cc2OC[C@H](C)NC[C@@H]1C do in these assays?
FGF22 binding: inactive; rRNA inh HTS: -9; AF4-AF9 inh: 4.7; rRNA inh HTS OD600: -5; rRNA inh HTS RFP: 8.2

What do the screens show for `CN1C(=O)c2cccc3c(S(=O)(=O)Nc4ccccn4)ccc1c23`?
HNF4A DNA FP: -0.3; ALR inh: -3; Ecoli growth: 0.79; Vif A3G: 17%

Results for COc1ccc(S(=O)(=O)c2nnn(-c3cccc(Cl)c3)c2N)cc1 ?
HNF4A DNA FP: 2.3; ALR inh: -8; FGF22 binding: inactive; rRNA inh HTS: 1; Ecoli growth: 0.68; AF4-AF9 inh: -5.0; Vif A3G: 13%; rRNA inh HTS OD600: -12; rRNA inh HTS RFP: -0.4

Results for O=C1C=C(c2ccc(Oc3ccccc3)cc2)C[C@@H](c2ccc(Cl)cc2)C1 ?
HNF4A DNA FP: 1.6; ALR inh: -4; FGF22 binding: inactive; rRNA inh HTS: 11; rRNA inh HTS OD600: 5; rRNA inh HTS RFP: -1.9

What do the screens show for `CCN(CC)c1cc(Cl)c2nonc2c1N`?
HNF4A DNA FP: 11; ALR inh: 20; FGF22 binding: inactive; rRNA inh HTS: 8; Ecoli growth: 0.62; AF4-AF9 inh: -2.2; Vif A3G: 0%; rRNA inh HTS OD600: 13; rRNA inh HTS RFP: 1.7

How did CCCCOC(=O)c1ccc(Nc2ccc([N+](=O)[O-])cn2)cc1 do in these assays?
HNF4A DNA FP: -3.8; ALR inh: -8; FGF22 binding: inactive; rRNA inh HTS: 13; Ecoli growth: 0.69; AF4-AF9 inh: 2.3; Vif A3G: 7%; rRNA inh HTS OD600: 17; rRNA inh HTS RFP: 3.4

Results for O=S(=O)(Nc1nc2ccccc2nc1N1CCN(CCO)CC1)c1cc(F)ccc1F ?
HNF4A DNA FP: 6.7; ALR inh: -2; FGF22 binding: inactive; rRNA inh HTS: 13; Ecoli growth: 0.72; AF4-AF9 inh: 1.1; Vif A3G: -4%; rRNA inh HTS OD600: 9; rRNA inh HTS RFP: -0.2

Results for CC1(C(=O)NS(=O)(=O)c2ccccc2Cl)CCN1C(=O)Cc1ccc(Cl)cc1Cl (stereo not drawn) ?
HNF4A DNA FP: 0.3; FGF22 binding: inactive; rRNA inh HTS: 1; AF4-AF9 inh: -2.6; rRNA inh HTS OD600: 18; rRNA inh HTS RFP: -2.9

Results for CCC(=O)N1[C@@H](C#N)[C@@H](c2ccccc2-c2cccc(C)c2)[C@@H]1CO ?
FGF22 binding: inactive; rRNA inh HTS: -3; AF4-AF9 inh: -1.9; rRNA inh HTS OD600: 2; rRNA inh HTS RFP: -3.6

Results for S=C1NCN(Cc2cccnc2)CN1Cc1ccccc1 ?
HNF4A DNA FP: -2.5; ALR inh: -5; FGF22 binding: inactive; rRNA inh HTS: -5; Ecoli growth: 0.68; AF4-AF9 inh: 2.0; Vif A3G: 1%; rRNA inh HTS OD600: 3; rRNA inh HTS RFP: -1.0

Results for C[C@H]1CCCCO[C@@H](CN(C)S(C)(=O)=O)[C@@H](C)CN([C@@H](C)CO)C(=O)c2cc(N(C)C)ccc2O1 ?
FGF22 binding: inactive; rRNA inh HTS: 4; AF4-AF9 inh: 1.4; rRNA inh HTS OD600: 2; rRNA inh HTS RFP: 0.3

The last 4 compounds of the section above come first, to join the parts.
Results for CC1(C(=O)NS(=O)(=O)c2ccccc2Cl)CCN1C(=O)Cc1ccc(Cl)cc1Cl (stereo not drawn) ?
HNF4A DNA FP: 0.3; FGF22 binding: inactive; rRNA inh HTS: 1; AF4-AF9 inh: -2.6; rRNA inh HTS OD600: 18; rRNA inh HTS RFP: -2.9

Results for CCC(=O)N1[C@@H](C#N)[C@@H](c2ccccc2-c2cccc(C)c2)[C@@H]1CO ?
FGF22 binding: inactive; rRNA inh HTS: -3; AF4-AF9 inh: -1.9; rRNA inh HTS OD600: 2; rRNA inh HTS RFP: -3.6

Results for S=C1NCN(Cc2cccnc2)CN1Cc1ccccc1 ?
HNF4A DNA FP: -2.5; ALR inh: -5; FGF22 binding: inactive; rRNA inh HTS: -5; Ecoli growth: 0.68; AF4-AF9 inh: 2.0; Vif A3G: 1%; rRNA inh HTS OD600: 3; rRNA inh HTS RFP: -1.0

Results for C[C@H]1CCCCO[C@@H](CN(C)S(C)(=O)=O)[C@@H](C)CN([C@@H](C)CO)C(=O)c2cc(N(C)C)ccc2O1 ?
FGF22 binding: inactive; rRNA inh HTS: 4; AF4-AF9 inh: 1.4; rRNA inh HTS OD600: 2; rRNA inh HTS RFP: 0.3

How did COc1ccc(O)c(C(=O)c2cnc3c(c2)c(C)nn3C)c1 do in these assays?
HNF4A DNA FP: 1.7; FGF22 binding: inactive; rRNA inh HTS: 0; Ecoli growth: 0.65; AF4-AF9 inh: 5.4; rRNA inh HTS OD600: -1; rRNA inh HTS RFP: 0.7

How did CCC(=O)NNC(=O)c1cc(COc2cc(Cl)cc(Cl)c2)on1 do in these assays?
HNF4A DNA FP: 3.4; ALR inh: -18; FGF22 binding: inactive; rRNA inh HTS: -4; Ecoli growth: 0.61; AF4-AF9 inh: -2.5; Vif A3G: 10%; rRNA inh HTS OD600: 6; rRNA inh HTS RFP: 1.8

What do the screens show for `Cc1cc(NC(=O)C(C)SCC(=O)N(Cc2ccccc2)c2ccccc2)no1` (stereo not drawn)?
HNF4A DNA FP: -2.6; ALR inh: 1; FGF22 binding: inactive; rRNA inh HTS: -17; Ecoli growth: 0.59; AF4-AF9 inh: -28; Vif A3G: -2%; rRNA inh HTS OD600: -14; rRNA inh HTS RFP: 1.3

What do the screens show for `CCCC(=O)Nc1ccc2c(c1)C(=O)N(C)C[C@@H](OC)[C@H](C)CN(C(=O)c1ccccn1)[C@@H](C)CO2`?
FGF22 binding: inactive; rRNA inh HTS: -1; AF4-AF9 inh: -2.5; rRNA inh HTS OD600: 4; rRNA inh HTS RFP: -1.4

Results for Cc1ccc2nc(-c3ccncc3)[nH]c2c1 ?
HNF4A DNA FP: 2.7; ALR inh: -5; FGF22 binding: inactive; rRNA inh HTS: -4; Ecoli growth: 0.67; AF4-AF9 inh: -0.2; Vif A3G: 5%; rRNA inh HTS OD600: -9; rRNA inh HTS RFP: 0.3

Results for O=C(NCc1cc(C(F)(F)F)cc(C(F)(F)F)c1)C1CC(c2ccccc2F)=NO1 (stereo not drawn) ?
HNF4A DNA FP: -1.1; FGF22 binding: inactive; rRNA inh HTS: 0; Ecoli growth: 0.69; AF4-AF9 inh: -2.6; rRNA inh HTS OD600: 3; rRNA inh HTS RFP: -5.9

Results for COc1ccccc1-c1ccc(SCc2cccc(C)c2)nn1 ?
HNF4A DNA FP: -1.0; FGF22 binding: inactive; rRNA inh HTS: 0; Ecoli growth: 0.7; AF4-AF9 inh: -3.3; rRNA inh HTS OD600: 7; rRNA inh HTS RFP: 5.4

How did COc1ccc(Oc2ncccc2[N+](=O)[O-])cc1 do in these assays?
HNF4A DNA FP: -0.7; ALR inh: -11; FGF22 binding: inactive; rRNA inh HTS: 16; Ecoli growth: 0.64; AF4-AF9 inh: -6.0; rRNA inh HTS OD600: 15; rRNA inh HTS RFP: 11

How did O=C(C[C@H]1CC[C@@H]2[C@H](COC[C@@H](O)CN2C(=O)Nc2ccccc2)O1)NC1Cc2ccccc2C1 do in these assays?
FGF22 binding: inactive; rRNA inh HTS: 3; AF4-AF9 inh: -2.0; rRNA inh HTS OD600: 12; rRNA inh HTS RFP: 2.2

How did COc1cccc(CN2CCN(S(=O)(=O)c3ccc(Cl)s3)CC2)c1 do in these assays?
HNF4A DNA FP: 3.6; ALR inh: 0; FGF22 binding: inactive; rRNA inh HTS: 3; AF4-AF9 inh: -0.1; rRNA inh HTS OD600: -23; rRNA inh HTS RFP: -1.2

How did C[C@@H]1CN([C@H](C)CO)C(=O)c2cc(NS(=O)(=O)c3ccc(F)cc3)ccc2O[C@@H](C)CCCCO[C@@H]1CN(C)C(=O)CCC(F)(F)F do in these assays?
FGF22 binding: inactive; rRNA inh HTS: 2; AF4-AF9 inh: 4.9; rRNA inh HTS OD600: -7; rRNA inh HTS RFP: 1.5

What do the screens show for `CCOC(=O)c1nc2nc(C)c(Cl)c(=O)n2[nH]1`?
HNF4A DNA FP: -1.1; ALR inh: -1; Ecoli growth: 0.75; Vif A3G: 9%

What do the screens show for `COc1ccc(NC(=O)N(C)C[C@@H]2Oc3c(NC(=O)C4CC4)cccc3C(=O)N([C@@H](C)CO)C[C@@H]2C)cc1`?
FGF22 binding: inactive; rRNA inh HTS: 4; AF4-AF9 inh: -1.0; rRNA inh HTS OD600: -3; rRNA inh HTS RFP: -1.6

Results for NC(=O)N/N=C/c1ccccc1OC(=O)c1cc2ccccc2oc1=O ?
HNF4A DNA FP: -2.1; ALR inh: 10; FGF22 binding: inactive; rRNA inh HTS: 12; AF4-AF9 inh: -7.4; rRNA inh HTS OD600: 13; rRNA inh HTS RFP: 0.0

Results for Cc1ccc(NC(=O)c2ccc3snnc3c2)cc1C ?
HNF4A DNA FP: 3.9; ALR inh: 20; FGF22 binding: inactive; rRNA inh HTS: 13; Ecoli growth: 0.7; AF4-AF9 inh: 1.0; rRNA inh HTS OD600: 23; rRNA inh HTS RFP: -2.4

How did CC(C)c1nnc(NC(=O)CN2C(=O)c3ccccc3C2=O)s1 do in these assays?
HNF4A DNA FP: 3.8; ALR inh: -8; FGF22 binding: inactive; rRNA inh HTS: 9; Ecoli growth: 0.7; AF4-AF9 inh: -1.3; Vif A3G: 3%; rRNA inh HTS OD600: 2; rRNA inh HTS RFP: 0.7

How did O=C(NCC(=O)N1CCN(S(=O)(=O)c2ccccc2C(F)(F)F)CC1)c1sc2ccccc2c1Cl do in these assays?
HNF4A DNA FP: 4.3; ALR inh: 1; rRNA inh HTS: 5; AF4-AF9 inh: -0.8; rRNA inh HTS OD600: 0; rRNA inh HTS RFP: 3.6

Results for COC(=O)C1C(O)=C(C=Nc2ccc3ccccc3c2)C(=O)CC1(C)C (stereo not drawn) ?
HNF4A DNA FP: 1.5; FGF22 binding: inactive; rRNA inh HTS: 16; Ecoli growth: 0.62; AF4-AF9 inh: -1.8; Vif A3G: -5%; rRNA inh HTS OD600: 17; rRNA inh HTS RFP: 3.1

How did C[C@@H]1CN([C@@H](C)CO)C(=O)c2cc(NS(=O)(=O)c3ccc(F)cc3)ccc2O[C@H]1CN(C)Cc1ccc(Cl)c(Cl)c1 do in these assays?
FGF22 binding: inactive; rRNA inh HTS: -3; AF4-AF9 inh: 1.9; rRNA inh HTS OD600: -19; rRNA inh HTS RFP: 3.8

Assay outcomes deposited in PubChem BioAssay by several laboratories.
